EPAC1 ag val: Validation qHTS for agonist of cAMP-regulated guanine nucleotide exchange factor 3 (EPAC1); Rap guanine nucleotide exchange factor 3 (Homo sapiens), O95398; Potency, µM, for the others: max response, positive = active, most hits filed as activators; 16,000 tested, 1% active; EPAC1 Rap1b BODIPY-GDP exchange, fluorescence; active = well fitted activation curve with a large enough effect; inconclusive = small, poorly fitted or top-dose-only effect; inactive = no such curve, though single readings can be large or run the other way;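 also: nearly all actives have a fitted effect of over 70% in size; series mostly up to about 76 or 150 µM; scaled to a cAMP control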
Target sequence (O95398 whole entry, looked up): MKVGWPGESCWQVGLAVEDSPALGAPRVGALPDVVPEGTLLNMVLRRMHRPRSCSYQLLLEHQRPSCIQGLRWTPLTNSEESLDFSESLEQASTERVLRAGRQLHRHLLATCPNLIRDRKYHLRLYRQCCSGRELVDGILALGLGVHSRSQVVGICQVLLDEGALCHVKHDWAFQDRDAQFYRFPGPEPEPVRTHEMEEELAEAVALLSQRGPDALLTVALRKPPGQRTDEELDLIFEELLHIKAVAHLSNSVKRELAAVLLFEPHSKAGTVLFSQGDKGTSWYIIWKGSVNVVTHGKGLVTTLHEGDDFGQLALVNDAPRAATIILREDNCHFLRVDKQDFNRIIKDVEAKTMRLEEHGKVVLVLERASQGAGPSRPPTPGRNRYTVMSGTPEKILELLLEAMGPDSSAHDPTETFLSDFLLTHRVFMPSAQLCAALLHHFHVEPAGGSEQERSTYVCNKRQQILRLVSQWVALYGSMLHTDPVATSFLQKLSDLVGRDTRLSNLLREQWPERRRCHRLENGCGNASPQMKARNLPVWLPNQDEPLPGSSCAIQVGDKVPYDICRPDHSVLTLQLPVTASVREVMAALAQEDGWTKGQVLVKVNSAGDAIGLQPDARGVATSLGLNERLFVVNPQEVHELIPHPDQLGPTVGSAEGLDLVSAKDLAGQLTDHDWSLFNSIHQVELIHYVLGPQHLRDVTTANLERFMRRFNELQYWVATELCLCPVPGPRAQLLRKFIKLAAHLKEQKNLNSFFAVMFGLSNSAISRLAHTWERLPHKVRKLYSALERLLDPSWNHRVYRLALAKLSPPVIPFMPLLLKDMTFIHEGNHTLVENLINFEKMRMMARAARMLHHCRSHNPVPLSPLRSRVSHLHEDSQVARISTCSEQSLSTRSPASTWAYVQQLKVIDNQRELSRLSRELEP
The depositor's hits bear a star; ? = inconclusive; & = joins results of further samples; ! = not confirmed by another sample; [ ] = dose if it differs, or a comment. % is scaled to controls: 0 for no effect and ±100 for the full control effect; potency is read from the fitted curve at half-maximal effect.

Structure	EPAC1 ag val
N#CC(C#N)=Cc1cc(O)c(O)c([N+](=O)[O-])c1	-14%
CC1=CCCC2C1(C)CCC(C)C2(C)CC/C(C)=C/C[n+]1cn(C)c2c(N)ncnc21 (stereo not drawn)	-3%
O=C(Oc1ccccc1)N1CCC2(CCCN(C(c3ccccc3)c3ccccc3)C2)CC1	-64%[inhibitor]
CC(C)c1cc2c(c(O)c1O)[C@]1(C(=O)O)CCCC(C)(C)C1CC2 (stereo partly drawn)	26%
O=CC=O	-22%
N#CC(O[C@@H]1OC(COC2OC(CO)C(O)C(O)[C@@H]2O)C(O)C(O)C1O)c1ccccc1 (stereo partly drawn)	-2%
C#CCN[C@H](C)Cc1ccccc1	-4%
C[C@]12CC[C@H]3[C@@H](C[C@H](F)C4=CC(=O)CC[C@@]43C)[C@@H]1CC[C@@H]2O	-15%
C[C@H]1CCC/C=C/C2C[C@H](O)C[C@H]2[C@H](O)/C=C/C(=O)O1 (stereo partly drawn)	-4%
C[C@]12CC[C@H](O)CC1=CCC1C2CC[C@]2(C)C(=O)CC[C@@H]12 (stereo partly drawn)	-8%
NC(Cc1cc(O)c(O)cc1O)C(=O)O (stereo not drawn)	18%
CC(=O)NBr	-8%
CCC(=O)OC1(c2ccccc2)CCN(C)CC1	2%
COc1cc(CC(C)N)c(OC)cc1I (stereo not drawn)	0%
O=Cc1ccccc1	-11%&7%
COC(=O)N1CCN(C(=O)Cc2ccc(Cl)c(Cl)c2)C(CN2CCCC2)C1 (stereo not drawn)	-10%&-14%
C[C@H]1CC[C@@H]2N(C1)C[C@H]1[C@@H]3C[C@H]4[C@@H](CC(=O)[C@H]5C[C@@H](O)CC[C@@]54C)[C@@H]3CC[C@H]1[C@]2(C)O	-5%
CCC1(CC)C(=O)NC(=O)NC1=O	-22%
NCC(CC(=O)O)c1ccc(Cl)cc1 (stereo not drawn)	2%&-25%&22%
CC(Cc1ccccc1)NC=O (stereo not drawn)	-4%
C[N+](C)(C)CC#CCOC(=O)Nc1cccc(Cl)c1	-11%&-11%
CC1C(=O)OC2O[C@]3(C)CC[C@H]4C(C)CCC1[C@]24OO3 (stereo partly drawn)	19%
C[C@]12C=CC(=O)C=C1CC[C@@H]1[C@@H]2CC[C@@]2(C)[C@H]1CC[C@]2(C)O	-16%
CCN(CCCl)Cc1ccccc1Br	-5%
CCCCCCCCCCCCCCCCOC[C@@H](COP(=O)([O-])OCC[N+](C)(C)C)OC(C)=O	-10%
O=C1OC2(c3cc(Br)c(O)cc3Oc3c2cc(Br)c(O)[c]3[Hg])c2ccccc21 (stereo not drawn)	40µM*!
CCCCCCC(C)(C)c1ccc([C@@H]2C[C@H](O)CC[C@@H]2CCCO)c(O)c1	-53%[inhibitor]
CC(=O)OC1C[C@@]2(C)C(c3ccoc3)C[C@H]3O[C@@]32[C@@]2(C)C(=O)C(O)=C3C(C)(C)C(=O)C=C[C@]3(C)C12 (stereo partly drawn)	17%
O=C1CC[C@]2(O)C3Cc4ccc(O)c5c4C2(CCN3CC2CC2)C1O5 (stereo partly drawn)	-13%
CN1CC[C@@]2(c3cccc(O)c3)Cc3nc4ccccc4cc3C[C@H]2C1	6%

As entered above:
For EPAC1 ag val, `O=C1OC2(c3cc(Br)c(O)cc3Oc3c2cc(Br)c(O)[c]3[Hg])c2ccccc21` (stereo not drawn) is listed with 40µM*!
For EPAC1 ag val, `N#CC(C#N)=Cc1cc(O)c(O)c([N+](=O)[O-])c1` is listed with -14%
For EPAC1 ag val, `CC1=CCCC2C1(C)CCC(C)C2(C)CC/C(C)=C/C[n+]1cn(C)c2c(N)ncnc21` (stereo not drawn) is listed with -3%

Other structures:
Structure	EPAC1 ag val
COc1ccc(NC(=O)N2CCCC3(CCN(C(=O)Oc4ccccc4)CC3)C2)cc1	-19%
CC(CO)NC(=O)C1C=C2c3cccc4[nH]cc(c34)C[C@H]2N(C)C1 (stereo partly drawn)	22%
CN(C)CCc1c[nH]c2ccc(O)cc12	22%
O=C(N/N=C/c1ccc([N+](=O)[O-])o1)c1cc([N+](=O)[O-])cc([N+](=O)[O-])c1O	-31%[inhibitor]
COC(=O)[C@]1(C)CC[C@@]2(C)CC[C@@]3(C)C4=CC=C5C(=CC(=O)C(O)=C5C)[C@@]4(C)CC[C@@]3(C)C2C1 (stereo partly drawn)	-26%
Cn1cc(C(=O)C(=O)N[C@H]2CN3CCC2CC3)c2ccccc21	6%
C[C@@H]1O[C@H](C[N+](C)(C)C)CS1	-3%
COc1c2c(cc3c1OCO3)C13C=CC(OC)CC1N(C2)CC3O (stereo not drawn)	18%
C/C=C/c1ccc2c(c1)OCO2	8%&-16%
CC[C@H](Oc1ccc(Cl)cc1)C(=O)OC1C[C@H]2CC[C@@H](C1)N2C (stereo partly drawn)	-5%
CC(N)Cc1ccc2c(c1)OCO2 (stereo not drawn)	4%
C[C@@H]1O[C@@H](O[C@H]2CC[C@]3(C=O)C4CC[C@]5(C)[C@@H](C6=CC(=O)OC6)CC[C@]5(O)[C@@H]4CC[C@]3(O)C2)[C@H](O)[C@H](O)[C@H]1O (stereo partly drawn)	-1%
COCC#CCN1CCCCC1c1cccnc1 (stereo not drawn)	-24%
O=C(c1ccco1)N1CCC[C@@]2(CCN(Cc3ccncc3)C2)C1	11%
COC(=O)C(Cl)C(=O)OC	3%
Fc1ccc(C(OCCN2CCN(CCCc3ccccc3)CC2)c2ccc(F)cc2)cc1	13%&3%&-25%
O=C(Oc1ccccc1)N1CCC[C@@]2(CCN(Cc3ccccc3)C2)C1	15%
CC(C)(O)C1O[C@H]2CC[C@@]3(C)[C@@](O)(CC[C@H]4Cc5c([nH]c6ccccc56)[C@@]43C)C2=CC1=O (stereo partly drawn)	?
CN[C@@H]1C[C@H](c2ccc(Cl)c(Cl)c2)c2ccccc21	-27%
O=C(Nc1ccccc1)N1CC[C@@]2(CCCNC2)C1	?
CC(C)CN1CC2(CCN(C(=O)Oc3ccccc3)CC2)C1	?
NC[C@H](CP(=O)(O)O)c1ccc(Cl)cc1	6%
NC1(c2ccccc2)CCCCC1	11%
CCC1(CCC(C)C)C(=O)NC(=O)NC1=O	3%
N[C@H](CCCCCP(=O)(O)O)C(=O)O	-6%&-12%
CC(C)(O)[C@@H]1C2OC(=O)[C@@H]1[C@]1(O)C[C@H]3O[C@]34C(=O)O[C@H]2[C@]14C	-13%
CC(C)CC(N(C)C)C1(c2ccc(Cl)cc2)CCC1 (stereo not drawn)	16%
CCCOC(=O)Cc1ccc(OCC(=O)N(CC)CC)c(OC)c1	-19%
CC(O)(CS(=O)(=O)c1ccc(F)cc1)C(=O)Nc1ccc(C#N)c(C(F)(F)F)c1 (stereo not drawn)	-8%
O=C(Nc1ccccc1-c1ccc(Cl)cc1)c1cccnc1Cl	25%

Quoted from the entries so far for reference:
Structure	EPAC1 ag val
N#CC(C#N)=Cc1cc(O)c(O)c([N+](=O)[O-])c1	-14%
CC1=CCCC2C1(C)CCC(C)C2(C)CC/C(C)=C/C[n+]1cn(C)c2c(N)ncnc21 (stereo not drawn)	-3%

Part of the list above in order of heavy-atom count, descending:
Structure	EPAC1 ag val
C[C@@H]1O[C@@H](O[C@H]2CC[C@]3(C=O)C4CC[C@]5(C)[C@@H](C6=CC(=O)OC6)CC[C@]5(O)[C@@H]4CC[C@]3(O)C2)[C@H](O)[C@H](O)[C@H]1O (stereo partly drawn)	-1%
CC(=O)OC1C[C@@]2(C)C(c3ccoc3)C[C@H]3O[C@@]32[C@@]2(C)C(=O)C(O)=C3C(C)(C)C(=O)C=C[C@]3(C)C12 (stereo partly drawn)	17%
COC(=O)[C@]1(C)CC[C@@]2(C)CC[C@@]3(C)C4=CC=C5C(=CC(=O)C(O)=C5C)[C@@]4(C)CC[C@@]3(C)C2C1 (stereo partly drawn)	-26%
Fc1ccc(C(OCCN2CCN(CCCc3ccccc3)CC2)c2ccc(F)cc2)cc1	13%&3%&-25%
CC(C)(O)C1O[C@H]2CC[C@@]3(C)[C@@](O)(CC[C@H]4Cc5c([nH]c6ccccc56)[C@@]43C)C2=CC1=O (stereo partly drawn)	?
COc1ccc(NC(=O)N2CCCC3(CCN(C(=O)Oc4ccccc4)CC3)C2)cc1	-19%
CC(O)(CS(=O)(=O)c1ccc(F)cc1)C(=O)Nc1ccc(C#N)c(C(F)(F)F)c1 (stereo not drawn)	-8%
O=C(Oc1ccccc1)N1CCC[C@@]2(CCN(Cc3ccccc3)C2)C1	15%
O=C1CC[C@]2(O)C3Cc4ccc(O)c5c4C2(CCN3CC2CC2)C1O5 (stereo partly drawn)	-13%
O=C(c1ccco1)N1CCC[C@@]2(CCN(Cc3ccncc3)C2)C1	11%
Cn1cc(C(=O)C(=O)N[C@H]2CN3CCC2CC3)c2ccccc21	6%
C[C@]12CC[C@H]3[C@@H](C[C@H](F)C4=CC(=O)CC[C@@]43C)[C@@H]1CC[C@@H]2O	-15%
C[C@H]1CCC/C=C/C2C[C@H](O)C[C@H]2[C@H](O)/C=C/C(=O)O1 (stereo partly drawn)	-4%
O=C(Nc1ccccc1)N1CC[C@@]2(CCCNC2)C1	?
COCC#CCN1CCCCC1c1cccnc1 (stereo not drawn)	-24%
CCC1(CCC(C)C)C(=O)NC(=O)NC1=O	3%
CN(C)CCc1c[nH]c2ccc(O)cc12	22%
N[C@H](CCCCCP(=O)(O)O)C(=O)O	-6%&-12%
CC(N)Cc1ccc2c(c1)OCO2 (stereo not drawn)	4%
C/C=C/c1ccc2c(c1)OCO2	8%&-16%
C[C@@H]1O[C@H](C[N+](C)(C)C)CS1	-3%
COC(=O)C(Cl)C(=O)OC	3%
O=Cc1ccccc1	-11%&7%
CC(=O)NBr	-8%
O=CC=O	-22%

Continuation:
Structure	EPAC1 ag val
CCCC[N+]12C3CC(C(CC)[C@H]1O)[C@@H]1C(O)C4(C[C@@H]12)c1ccccc1N(C)C34 (stereo partly drawn)	3%
CC[C@H](C)[C@H]1O[C@]2(C=C[C@@H]1C)C[C@@H]1C[C@@H](C/C=C(\C)[C@@H](O[C@H]3C[C@H](OC)[C@@H](O[C@H]4C[C@H](OC)[C@@H](O)[C@H](C)O4)[C@H](C)O3)[C@@H](C)/C=C/C=C3\CO[C@@H]4[C@H](O)C(C)=C[C@@H](C(=O)O1)[C@]34O)O2	-42%[inhibitor]
C[C@H]1CNCCc2ccc(Cl)cc21	11%
Cc1c(C(=O)c2cccc3ccccc23)c2cccc3c2n1[C@H](CN1CCOCC1)CO3	?
CNC(=O)Oc1cccc2c1OC(C)(C)C2	?
CCOC(=O)[C@]12Cc3ccccc3[C@H]1N(Cc1ccccc1)C(=O)c1ccccc12	?
CCC1(CC)C(=O)C=CNC1=O	24%
NC(N)=Nc1ccc2[nH]c3c(c2c1)C[C@]1(O)[C@@H]2Cc4ccc(O)c5c4[C@]1(CCN2CC1CC1)[C@@H]3O5	-18%
C[N+]1(C)CCOC(O)(c2ccc(-c3ccc(C4(O)C[N+](C)(C)CCO4)cc3)cc2)C1 (stereo not drawn)	-5%&-4%
COc1cc2occc2c2oc(=O)ccc12	?
CNC(=O)OCC[N+](C)(C)C	-8%
N[C@@H](Cc1ccc(N(CCCl)CCCl)cc1)C(=O)O	0%
COC(C)C(O)(C(=O)OC1=CCN2CC[C@H](O)[C@H]12)C(C)C (stereo partly drawn)	-15%
O=C(Nc1ccccc1)N1CCC2(CC1)CCN(C(=O)Oc1ccccc1)CC2	-23%
C=C(C)[C@H]1Cc2c(ccc3c2O[C@@H]2COc4cc(OC)c(OC)cc4[C@@H]2C3=O)O1	11%&-20%&0%
c1ccc(CN2CCNCC2)cc1	7%
NCC(O)c1ccc(O)cc1 (stereo not drawn)	-9%&14%&-44%
Oc1ccc2[nH]cc(CCCCN3CC=C(c4ccccc4)CC3)c2c1	-18%
C=CCC1([C@H](C)CCC)C(=O)NC(=O)NC1=O	-11%
O=C(CN1CCCC2CCCCC21)c1ccc(I)cc1 (stereo not drawn)	8%
CC(C)CCCC1(C)C=Cc2c(O)c3c(c(CCC(C)C)c2O1)OC12C(CC4CC1C(C)(C)OC2(CCC(C)C(=O)O)C4O)C3=O (stereo not drawn)	-161%[inhibitor]
C[C@H]1CCCC=CC2C[C@H](O)C[C@@H]2[C@H](O)C=CC(=O)O1 (stereo partly drawn)	-10%
CCC1(c2ccccc2)C(=O)NC(=O)NC1=O	0%
C/C(=C\C=C/[C@@H](C)C(=O)O)[C@H]1CN[C@H](C(=O)O)[C@@H]1CC(=O)O	10%
O=C1c2ccccc2C(=O)C1C(=O)C(c1ccccc1)c1ccccc1	21%
NCC(O)c1cccc(O)c1 (stereo not drawn)	-14%
COCC(C)N(C(=O)CCl)c1c(C)csc1C (stereo not drawn)	-5%
O=C(c1ccco1)N1CCC2(CC1)CN(Cc1ccncc1)C2	30%
Oc1ccc2c3c1O[C@H]1c4oc5ccccc5c4C[C@]4(O)[C@H](C2)N(CC2CC2)CC[C@@]314	12%
CC1CC(O)[C@]2(O)[C@]13CC(=O)OC[C@@]2(C)[C@@](C)(O)C(=O)C3 (stereo partly drawn)	?
C[C@H](NC(=O)[C@@H](N)Cc1ccc(O)cc1)C(=O)N[C@@H](Cc1ccccc1)C(=O)NCC(=O)N[C@@H](Cc1ccc(O)cc1)C(=O)N1CCC[C@H]1C(=O)N[C@@H](CO)C(N)=O	-10%
CC(N)(COP(=O)(O)Oc1ccccc1)C(=O)O (stereo not drawn)	-13%
C=CCN1CC[C@]23c4c5ccc(O)c4O[C@H]2[C@@H](O)C=C[C@H]3[C@H]1C5	-10%

Some of the compounds tested; the hit share may differ from the screen's.
